# HIV Env fusion: HIV envelope-mediated fusion inhibition; HeLa-JRFL Env/CEM21 cell fusion, luciferase; 360,000 tested, 1.1% active; AID 651610; inhibition, % at 12.3 µM;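 active = mean replicate inhibition score of at least 50 and every replicate individually at or above 50; inconclusive = only one of the two criteria met; inactive = mean below 50 and not all replicates reaching 50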;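 note: 0% = plate neutral controls and 100% = maraviroc near 300 nM; one replicate is shown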
# PABP polyA inh: blocks human PABP binding to poly(A) RNA. P11940. fluorescence polarization. inhibition, % at 35 µM. 290,000 tested, 1% active. AID 2014;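 active = 50% or more with normal probe brightness, or confirmed in later tests; inconclusive = above 50% with abnormal brightness, or retests that disagree; inactive = below 50% or failed in later tests; about a fifth of its hits are not listed in these tables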;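 note: calls also rest on retests at 20 µM and on dose response follow-up; controls were probe without protein and protein plus probe with vehicle; some compounds called inactive have numbers as strong as hits; many hits fall short of the cut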
# Target sequence (P11940 whole entry, looked up): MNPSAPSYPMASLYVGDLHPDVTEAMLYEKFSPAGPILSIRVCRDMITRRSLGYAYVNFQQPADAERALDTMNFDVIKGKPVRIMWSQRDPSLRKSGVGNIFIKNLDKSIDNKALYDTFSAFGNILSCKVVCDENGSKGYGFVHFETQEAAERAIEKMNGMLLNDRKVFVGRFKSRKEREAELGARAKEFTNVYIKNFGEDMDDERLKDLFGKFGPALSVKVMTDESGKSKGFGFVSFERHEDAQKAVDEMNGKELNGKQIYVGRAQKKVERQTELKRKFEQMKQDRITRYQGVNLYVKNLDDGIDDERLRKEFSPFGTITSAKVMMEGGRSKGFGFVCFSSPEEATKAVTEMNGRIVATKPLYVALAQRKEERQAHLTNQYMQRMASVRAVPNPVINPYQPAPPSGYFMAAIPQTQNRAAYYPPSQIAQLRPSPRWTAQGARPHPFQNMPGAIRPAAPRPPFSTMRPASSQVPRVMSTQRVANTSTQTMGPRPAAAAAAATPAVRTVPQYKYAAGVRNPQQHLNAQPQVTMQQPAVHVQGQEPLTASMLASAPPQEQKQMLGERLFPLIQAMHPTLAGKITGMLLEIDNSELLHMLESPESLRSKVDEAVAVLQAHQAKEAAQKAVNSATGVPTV
# UUG fidelity: alters start codon recognition fidelity in yeast. S. cerevisiae UUG-firefly luciferase reporter, luminescence/redox ratio. AID 602363. 350,000 tested, 0.13% active. activity score, % at 18.7 µM;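 active = replicate mean at a twofold rise or more, about +100% in these data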;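 note: firefly luciferase made from a UUG start codon reports start codon fidelity; reporter light over untreated wells divided by growth signal over untreated wells; some hits fall short of that in this replicate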
# Rce1 inhib: blocks yeast Ras-converting enzyme. Q03530. yeast membranes, quenched prenylated peptide cleavage fluorescence. calls only. 290,000 tested, 0.27% active;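 active = fall in fluorescence gain of 50% or more versus controls, with final raw signal at or below 3038400; inconclusive = same 50% fall but final raw signal above 3038400; inactive = fall in fluorescence gain under 50%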;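 note: plate controls were neutral control wells for no effect and wells lacking membranes for full effect; tested at 10 µM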
# eIF4H FP inh: inhibitors of RNA binding by human eIF4H | eIF4H fluorescence polarization binding assay | inhibition, % at 35 µM | 290,000 tested, 0.94% active | AID 2012;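 active = 50% or more with normal probe brightness, or confirmed in later tests; inconclusive = above 50% with abnormal brightness, or retests that disagree; inactive = below 50% or failed in later tests; about a fifth of its hits are not listed in these tables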;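 note: calls also rest on retests at 20 µM and on dose response follow-up; 0% = protein and probe with vehicle and 100% = probe without protein; strong numbers were not always called active; many hits fall short of the cut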
# MT1-MMP act inh: MT1-MMP (human) activation inhibition. HT1080 RFP-PRO-GFP cells, GFP/RFP ratio fluorescence, overnight; percent of plate control window, DMSO zero. GFP/RFP ratio change, % at 20 µM. 360,000 tested, 0.061% active. AID 651647;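 active = GFP/RFP ratio change of at least 30% with cell ATP level not reduced by more than half and red fluorescence within 50% of control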; note: strong numbers were not always called active
#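 Assay system: HT1080 cells carrying an RFP-PRO-GFP reporter | Dosing: Single dose of 20 µM compound, 1% DMSO final | Incubation: Cells overnight before dosing, compound overnight, 37 °C, 5% CO2 | Evaluation: GFP/RFP fluorescence ratio | Control set: DMSO and RFP-L50D-GFP cell wells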
# CSC inhib: cancer stem cell inhibition; cancer stem cell-like cells viability, luminescence; inhibition, % at 7.5 µM; 300,000 tested, 1.1% active;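 active = mean at 75% or more and at least half the replicates too; inconclusive = mean and replicates disagree; tested in HMLE shEcad cells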;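 note: 0% = median of negative and 100% = median of positive control wells; the first replicate is given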
# eIF4H FP inh retest: further read-out of eIF4H FP inh, marked with its call; inhibition, %; compound at 20 µM; confirmation average;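 mean of two retest wells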
# PABP polyA inh retest: recorded beside PABP polyA inh, whose call it bears; inhibition, %; compound at 20 µM; confirmation repeats;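 mean of two retest wells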
# MT1-MMP act inh RFP: also measured in MT1-MMP act inh; calls as there; RFP signal change, %; measured here: RFP expression control read;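 0 = vehicle wells; hits needed this value within 50% of zero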
# Numbers without * were called inactive; i = inactive; ? = inconclusive; · = no result given.
SMILES,HIV Env fusion,PABP polyA inh,UUG fidelity,Rce1 inhib,eIF4H FP inh,MT1-MMP act inh,MT1-MMP act inh RFP,CSC inhib,others
Cc1ccc(CCN2CC(C(=O)NCCN3CCCCCC3)CC2=O)cc1 (stereo unspecified),·,17,26,i,-1,1,7,10,
COC(=O)c1ccc(CN2CCC(CO)(Cc3ccccc3Cl)CC2)cc1,17,-2,·,i,-1,-1,-2,-11,
COc1ccc(C(=O)NC2CCN(CC(=O)Nc3cccc(OC)c3)CC2)cc1,1,-15,1,i,6,-1,2,-5,
CCCn1c2ccccc2c2nnc(SC(CC)C(=O)Nc3sc4c(c3C#N)CCCC4)nc21 (stereo unspecified),-56,4,-20,i,-8,2,-3,12,
O=C(COC(=O)C1COc2ccccc2O1)Nc1cccc(Cl)c1 (stereo unspecified),·,·,-18,·,·,-1,3,-17,
CC(CC(=O)OCC(=O)NCc1ccc(Cl)cc1)c1ccccc1 (stereo unspecified),7,·,18,·,·,4,-1,·,
Cc1cc(C(=O)CSc2nnc(-c3ccccc3)o2)c(C)n1CC1COc2ccccc2O1 (stereo unspecified),·,?,·,i,?,-5,-4,-20,
COc1ccc(NC(=O)Cc2cccc(F)c2)cc1S(=O)(=O)Nc1ccccc1Cl,3,-4,-9,i,-4,-4,-23,-2,
O=S(=O)(Cc1ccccc1)N1CCCCCC1,-72,5,-13,i,-5,5,3,-8,
CCN1CCSc2ccc(C(=O)NCc3cccc(F)c3)cc21,-7,-3,-17,i,-12,-1,0,-1,
Cc1ccc(C(=O)C[n+]2ccccc2C)cc1[N+](=O)[O-],0,1,-20,i,-14,5,3,-12,
CCc1cccc(NC(=O)NC2CCCCC2)c1,-9,3,-6,i,12,-4,-1,0,
O=C(NCCc1ccc(Cl)cc1)c1cc(=O)[nH]c2ccccc12,-7,6,-16,i,4,3,3,10,
COc1ccc(C(=O)OCC(=O)Nc2ccc(Cl)c(C(F)(F)F)c2)c(OC)c1OC,8,-1,3,i,-6,-1,-2,-23,
Cc1ccc(C(=O)COC(=O)CCCC(=O)Nc2cc(C(F)(F)F)ccc2Cl)cc1C,19,-9,2,i,-1,0,6,·,
CC(=O)NNS(=O)(=O)c1ccccc1[N+](=O)[O-],4,6,·,i,0,1,4,2,
Cc1ccc(Cl)cc1N1CCN(S(=O)(=O)c2ccc(-c3ccc(=O)[nH]n3)o2)CC1,14,-4,·,i,-9,-4,-5,39,
COc1ccc(N(C)S(=O)(=O)c2cccc(C(=O)Nc3nnc(C4CC4)s3)c2)cc1,-8,6,-10,i,8,-9,-8,1,
COc1cccc(CC(NC(C)=O)C(=O)NC2CCN(C(=O)NCc3ccccc3)CC2)c1 (stereo unspecified),6,8,-2,i,-7,-2,-1,·,
O=C(COC(=O)C1=COCCO1)NCCCc1ccccc1,·,3,-21,i,2,-1,2,-2,
Cc1nc2ccccc2n1CC(=O)NCc1ccccc1,83*,-1,-18,i,-12,1,-20,0,
O=C1CCC[C@@H]2Cc3nc4ccccc4cc3[C@@H]3CCN1[C@H]23,-56,·,-11,·,·,7,4,·,
COc1ccc(C2c3c(ncn(CCCN4CCOCC4)c3=N)Oc3ccc4ccccc4c32)cc1OC (stereo unspecified),-248,-8,·,i,-14,-2,-13,-7,
COCCNC(=O)CN(C(=O)CCC(=O)Nc1nccs1)c1ccc2c(c1)OCO2,12,8,-9,·,5,1,6,-5,
COCC(C)n1c(SCC(=O)NC(=O)NCc2ccccc2)nc2ccccc2c1=O (stereo unspecified),42,·,0,·,·,4,-1,-5,
CC(NC(=O)C12CC3CC(C1)CC(n1cncn1)(C3)C2)C12CC3CC(CC(C3)C1)C2 (stereo unspecified),·,4,-19,i,-6,-1,-5,-8,
COC(=O)c1cc(OC)c(OC)cc1NC(=O)c1c(-c2ccccc2)noc1C,·,-6,5,i,-14,3,-3,11,
CC1=CC(C)(C)NC(=S)N1c1ccc([N+](=O)[O-])cc1,47,·,-23,·,·,4,-13,·,
COc1ccc(CC(=O)OC(C)C(=O)Nc2ccc(Cl)cn2)cc1 (stereo unspecified),·,·,24,·,·,1,1,-9,
Cc1ccc(NC2CCCN(C(=O)c3ccccn3)C2)cc1C (stereo unspecified),15,-2,1,i,-6,1,0,-11,

# In the list so far, these have an aryl thioether with sulfur outside any ring:
SMILES,HIV Env fusion,PABP polyA inh,UUG fidelity,Rce1 inhib,eIF4H FP inh,MT1-MMP act inh,MT1-MMP act inh RFP,CSC inhib,others
CCCn1c2ccccc2c2nnc(SC(CC)C(=O)Nc3sc4c(c3C#N)CCCC4)nc21 (stereo unspecified),-56,4,-20,i,-8,2,-3,12,
Cc1cc(C(=O)CSc2nnc(-c3ccccc3)o2)c(C)n1CC1COc2ccccc2O1 (stereo unspecified),·,?,·,i,?,-5,-4,-20,
COCC(C)n1c(SCC(=O)NC(=O)NCc2ccccc2)nc2ccccc2c1=O (stereo unspecified),42,·,0,·,·,4,-1,-5,

# (more compounds)
SMILES,HIV Env fusion,PABP polyA inh,UUG fidelity,Rce1 inhib,eIF4H FP inh,MT1-MMP act inh,MT1-MMP act inh RFP,CSC inhib,others
O=C(/C=C/c1ccc(OCCCF)cc1)Nc1ccnc(-c2ccncc2)n1,5,0,·,i,-3,7,-11,·,
Cc1cccc(NC(=O)CCc2nnc3ccc(NCc4ccco4)nn23)n1,6,32,-8,i,80*,-1,3,-4,eIF4H FP inh retest=71*;PABP polyA inh retest=34
O=C(NCCc1nc2ccccc2[nH]1)C1CCC(=O)N(CCc2cccc(F)c2)C1 (stereo unspecified),9,5,-12,i,-11,0,3,0,
CCOC(=O)COn1c(-c2cccc(Cl)c2)nc2ccc([N+](=O)[O-])cc21,·,11,·,i,2,-1,-14,28,
COc1ccccc1/C=C/C(=O)NNC(=O)c1cccs1,-1,10,·,i,8,-1,2,-5,
CC1CCCC(C)N1CCCNC(=O)c1cc2c(s1)-c1ccccc1OC2 (stereo unspecified),6,4,-26,?,33,1,6,22,
CC(Sc1ncn[nH]1)C(=O)c1c(N)n(C)c(=O)n(C)c1=O (stereo unspecified),8,·,-6,·,·,2,-1,·,
O=C(NNC(=O)C(c1ccccc1)c1ccccc1)c1cccs1,·,6,-12,i,5,2,7,-4,
COCCOC(=O)C1=C(C)N(Cc2ccccc2)C(=O)NC1c1cccc(OC)c1OC (stereo unspecified),-68,-7,-2,i,-4,4,4,-13,
O=C(CNc1ccccc1)NNC1=NCCC1,12,-12,·,i,-9,1,4,-10,
CN(Cc1ccc([N+](=O)[O-])cc1)c1ccccc1,19,·,-16,·,·,0,-5,·,
COC(=O)[C@H](Cc1ccccc1)NC(=O)[C@@H]1C[C@H]1[C@@H](NC(=O)OCc1ccccc1)c1ccccc1,41,2,-13,i,-9,2,0,-3,
CCN(CC)CCCN1C=C2C(=O)C(C)(OC(=O)CCC(=O)OC)C(=O)C=C2C=C1C1CC1 (stereo unspecified),-7,·,5,i,·,2,5,3,
CCc1nc2ccc(C(=O)NCCCn3ccnc3)cn2c1N(CC)Cc1cccc(Br)c1,13,·,-5,·,·,-1,-2,·,
CCN1C(=O)C(=O)N(CC(=O)NC(C)CCc2ccccc2)C1=O (stereo unspecified),2,·,-6,·,·,1,1,·,
Cc1ccc(/C=N/NC(=O)CSc2nc3ccccc3n2C)s1,-1,7,-17,i,-3,4,4,17,
O=C1c2ccccc2CN1CCNC(=S)NC1CCCCC1,4,-1,-30,i,2,5,3,-13,
COCc1ccc(C(=O)N2CCCC(Nc3ccc(C(C)C)cc3)C2)o1 (stereo unspecified),9,5,27,i,-7,4,-4,0,
OCCCn1c(-c2ccccc2)n[nH]c1=S,-63,-9,·,i,2,3,10,-2,
CN1C(=O)c2ccccc2C(C(=O)O)C1c1cn(C)c2ccccc12 (stereo unspecified),-2,1,-32,i,-4,0,6,·,

# Among those listed so far, 5 contain a thiophene ring, fused or not:
SMILES,HIV Env fusion,PABP polyA inh,UUG fidelity,Rce1 inhib,eIF4H FP inh,MT1-MMP act inh,MT1-MMP act inh RFP,CSC inhib,others
CCCn1c2ccccc2c2nnc(SC(CC)C(=O)Nc3sc4c(c3C#N)CCCC4)nc21 (stereo unspecified),-56,4,-20,i,-8,2,-3,12,
COc1ccccc1/C=C/C(=O)NNC(=O)c1cccs1,-1,10,·,i,8,-1,2,-5,
CC1CCCC(C)N1CCCNC(=O)c1cc2c(s1)-c1ccccc1OC2 (stereo unspecified),6,4,-26,?,33,1,6,22,
O=C(NNC(=O)C(c1ccccc1)c1ccccc1)c1cccs1,·,6,-12,i,5,2,7,-4,
Cc1ccc(/C=N/NC(=O)CSc2nc3ccccc3n2C)s1,-1,7,-17,i,-3,4,4,17,

# More structures
SMILES,HIV Env fusion,PABP polyA inh,UUG fidelity,Rce1 inhib,eIF4H FP inh,MT1-MMP act inh,MT1-MMP act inh RFP,CSC inhib,others
Cc1ccc(N2C(=O)c3cccc([N+](=O)[O-])c3C2=O)cc1C,-3,10,0,i,-11,0,0,-5,
Cc1c(C(c2cc(O)ccc2Cl)c2c(C)n(C)n(-c3ccccc3)c2=O)c(=O)n(-c2ccccc2)n1C,-8,·,-7,i,·,1,-3,-19,
CCOC(=O)c1cnc2c(C(=O)OCC)cnn2c1N,-10,-6,1,i,-7,3,0,-7,
CCOc1ccc(N=CC2=C(O)CC(c3ccco3)CC2=O)cc1 (stereo unspecified),·,-7,2,i,4,-1,0,-1,
CC1(C)Cc2ccccc2C(c2cc3ccccc3oc2=O)=N1,·,1,-18,i,-5,6,3,7,
Cc1csc2nc(CN3CCN(CC(=O)N(C)C)CC3)cc(=O)n12,7,11,-28,·,19,4,3,-11,
COC(=O)C1C(c2ccc(Br)cc2)Nc2nnc(C(F)(F)F)n2C1(C)O (stereo unspecified),4,11,-11,i,2,1,3,-1,
Cc1cc(Nc2ccccc2)c2c([N+](=O)[O-])c(C)cc(C)c2n1,·,0,-23,i,1,9,-3,42,
CCOC(=O)c1oc2nc3c(cc2c1N)CCCC3,-63,1,-6,i,0,-4,0,2,
CCNc1nc(NC(C)C)nc(OCC)n1,·,6,-12,i,-10,0,6,-7,
CCC(=O)Nc1cc(-c2nnc(OC)c3ccccc23)ccc1N1CCOCC1,?,0,-6,i,4,-3,1,-7,
O=C(NC1CCCCC1)c1cccc2c(-c3ccc(F)c(F)c3)coc12,17,·,-16,·,·,-6,-12,·,
CCn1c(=O)c2cc(C(=O)NCCC(C)C)sc2c2ccccc21,-8,3,-6,i,0,4,0,32,
CC(C)(C)NC(=O)CSc1nnc(Cc2ccc3c(c2)OCO3)n1C1CCCCC1,-4,4,·,i,-7,3,1,-5,
O=C(COC(=O)CNC(=O)C1CCCCC1)Nc1ccc(Cl)cc1F,-1,9,·,i,1,-2,1,1,

# Bioassay records (PubChem)
